# Bead autofluor – counter-screen for toxin protease inhibitors: compound fluorescence | compound autofluorescence counterscreen, microsphere flow cytometry; stronger effect = higher value | fluorescence intensity (test concentration not listed) | 360,000 tested, 3.1% active | AID 624483;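 active means at least 3 SD above the mean of all compounds, about 16000 in these data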;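 further: 100 nL of 1 mM stock went into each well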
# * marks the source's active call; other numbers are inactive results. A portion of the library; the hit share may differ from the screen's.
SMILES,Bead autofluor
CC1(C(=O)NS(=O)(=O)c2cccc(C#N)c2)CCN1C(=O)CC1CCCC1 (centres undefined),2832
CSc1ccccc1-c1cnc2cccnn12,3807
Cc1ccc(CN(C)C[C@H]2OCc3cnnn3CCCC(=O)N([C@@H](C)CO)C[C@@H]2C)cc1,3640
COc1cc(CN2C[C@@H](CO)O[C@@H](n3cnc4c(NCc5ccncc5)ncnc43)C2)cc(OC)c1OC,3853
CCOc1ccc(NC(=O)CN2CCN(c3ccc(F)cc3)CC2)cc1S(=O)(=O)N1CCCC1,3976
COc1ccc(Cn2ccnc2SCC(=O)Nc2ccc(F)cc2F)cc1,3524
CCc1nc2ccc(C(=O)N3CCN(C(=O)c4ccco4)CC3)cn2c1N(C)C(=O)c1cccc(OC)c1,2760
Cc1csc(-c2ccc3cc(Cl)cc(Cl)c3n2)n1,6310
Cc1csc(NC(=O)C2(C)CCN2C(=O)C(C)C)c1C#N (centres undefined),3809
CNC(=O)C[C@@H]1C(=O)N(CCc2ccccc2)CC1(C)C,3584
O=C(NC(c1ccc(Cl)cc1)c1ccsc1)C1CCN(CCOc2ccc(Cl)cc2)CC1 (centres undefined),4231
C[C@@H]1CN([C@@H](C)CO)C(=O)CCCn2nncc2CO[C@H]1CN(C)S(=O)(=O)c1ccc(Cl)cc1,3693
CCc1nn(CCCC(=O)NC2CCCCC2C)c(=O)c2cc3occc3n12 (centres undefined),4056
Fc1ccccc1N1CCN(C(c2ccnc3ccccc23)c2nnnn2-c2ccc3c(c2)OCCO3)CC1 (centres undefined),5336
COC(=O)[C@@]1(Cc2ccc(F)cc2)[C@H]2c3cc(C(=O)N4CCCC4)n(Cc4ccc(Cl)c(C(F)(F)F)c4)c3C[C@H]2CN1C(=O)c1ccccc1,6590
CCc1nc2ccc(C(=O)N(CC)CCN(C)C)cn2c1N(C)Cc1ccc(OC)cc1,3430
O=C(Nc1nc([C@@H]2O[C@H](CO)[C@@H](O)[C@H](O)[C@H]2O)cs1)NC(c1ccccc1)c1ccccc1,5475
CS(=O)(=O)N1CCCCC1c1cc(C(=O)NCc2ccc(F)cc2)no1 (centres undefined),3806
Cc1ccc(C=C2C=C(c3ccccc3)OC2=O)cc1,3413
COc1cc(C(O)c2nc(-c3cnn(C)c3)cs2)ccc1F (centres undefined),3805
COc1cccc(CNc2nc3cc(-c4ccc(C)cc4)sc3c(=O)n2C)c1OC,2878
O=C(Cn1nnc(-c2ccccc2)c1COc1ccc2ccccc2c1)NCC1CC1,3940
c1cn2c(-c3ccoc3)cncc2n1,3361
CCOC(=O)C1(C)CCCN(C(=O)c2cccc(C(F)(F)F)c2)C1 (centres undefined),4015
O=[N+]([O-])c1nccn1CCCCCCN1CCOCC1,5481
# (cont.)
SMILES,Bead autofluor
O=C(Nc1nc(-c2ccc([N+](=O)[O-])cc2)cs1)C1=COCCO1,3443
CCCCNC(=O)C1(C)CCCCN1C(=O)c1ccc2c(c1)C(C)(C)CCC2(C)C (centres undefined),2900
CCCNC(=O)C1(C)CCN(C(=O)c2sccc2C)C1 (centres undefined),3493
CC(C)C1C(=O)N(Cc2cn(CC3CCCCC3)nn2)CCS(=O)(=O)N1Cc1ccc(-c2ccccc2)cc1 (centres undefined),2995
CC(C)N1CC(=O)N2CSCC2C1=O (centres undefined),6256
Cc1ccc(S(=O)(=O)N(C)C[C@H]2OCCCC[C@@H](C)Oc3ccc(N(C)C)cc3C(=O)N([C@H](C)CO)C[C@@H]2C)cc1,3742
O=C(O)C(Cc1c[nH]c2ccccc12)NS(=O)(=O)c1ccc(F)cc1 (centres undefined),3435
CSc1ncnc2c1ncn2CCCNCc1cccs1,3047
Cc1c(C(=O)NCc2cccs2)sc(=O)n1Cc1ccc(S(=O)(=O)N(C)C)cc1,5424
CCC(=O)N1CCC1(C)C(=O)Nc1ccc2c(c1)OCO2 (centres undefined),3107
O=C(Nc1ccn(CCCN2CCC(N3CCOCC3)CC2)c(=O)n1)OCc1ccccc1,3506
O=C(O)c1ccc2c(c1)C(=O)N([C@H](Cc1cccc3ccccc13)C(=O)O)C2=O,3854
CN(Cc1ccccc1)N=Nc1ccccc1,2864
Cc1cc(Br)cn2c(Cc3ccccc3)c(-c3ccc(Cl)cc3)nc12,6016
Cc1cc(C(=O)N2CCC2(C)C(=O)NS(=O)(=O)c2ccc(F)cc2F)nn1C (centres undefined),2900
CCC(CC)CN1CCC(CN2C(=O)C(=O)NC[C@@H]2CC(C)C)CC1,2508
COc1ccc(CCN2CC(C(=O)NCc3cnn(C)c3)CCC2=O)cc1 (centres undefined),3685
O=C(NCc1ccccc1Cl)c1ccc2nc([C@@H]3O[C@H](CO)[C@H](O)[C@H](O)[C@H]3O)[nH]c2c1,3852
CCS(=O)(=O)NC(=O)C1(C)CCN1C(=O)C1(c2ccc(Cl)cc2)CC1 (centres undefined),2973
CC(=O)Nc1cncc(-c2ccccc2C(C)=O)n1,3727
FC(F)(F)c1cc(Cl)c2nc(-c3ccccc3)c(Cc3ccsc3)n2c1,4464
COP(=O)(OC)C(=NNS(=O)(=O)c1ccc(C)cc1)c1ccccc1,2861
COc1ccc(OC)c(NC(=O)COc2cc(O)c3c(c2)OC(C)(C)CC3=O)c1,4157
CC(C)(C)c1ccc(C(O)c2ncc(-c3cccc(F)c3)[nH]2)cc1 (centres undefined),3903
CC1(C(=O)NS(=O)(=O)c2ccc(Cl)cc2)CCN1C(=O)Cc1cc(F)ccc1F (centres undefined),4170

# Some of the entries above, reformatted:
SMILES	Bead autofluor
Cc1cc(C(=O)N2CCC2(C)C(=O)NS(=O)(=O)c2ccc(F)cc2F)nn1C (centres undefined)	2900
COc1cc(C(O)c2nc(-c3cnn(C)c3)cs2)ccc1F (centres undefined)	3805
CCCCNC(=O)C1(C)CCCCN1C(=O)c1ccc2c(c1)C(C)(C)CCC2(C)C (centres undefined)	2900

# More compounds follow:
SMILES,Bead autofluor
NC(Cc1ccccc1)c1csc(Nc2nncc3ccccc23)n1 (centres undefined),3865
Fc1ccc(-c2nc3c(Cl)cc(C(F)(F)F)cn3c2Cc2cccc(F)c2)cc1,4808
COc1ccccc1Cc1c(-c2ccc(F)cc2)nc2cc(C)c(Br)c(C)n12,6390
O=C(NCC1CC1)C1Cc2c(-c3cccc(F)c3)ccnc2O1 (centres undefined),2962
CCC(=O)N1CCC1(C)C(=O)Nc1ccccc1 (centres undefined),3490
COc1ccc(CN2C(=O)CCC2(C)c2nnnn2-c2ccc3c(c2)OCCO3)cc1OC (centres undefined),6323
CC1(C(=O)NS(=O)(=O)c2ccc(F)cc2F)CCN1C(=O)Cc1ccc(-c2ccccc2)cc1 (centres undefined),3610
CC1(C(=O)Nc2ccc3c(c2)OCO3)CCN1Cc1cccc2c1OCO2 (centres undefined),4232
CC(C)(O)C#Cc1ccc(CNC[C@H]2O[C@@H](n3cnc4c(=O)[nH]c(N)nc43)[C@H](O)[C@@H]2O)s1,6307
COc1cccc(CN2CCN(c3ccc(F)cc3)CC2)c1OC,3652
COc1ccc(N2C(c3cc(OC)cc(OC)c3)=Cc3ccccc3C2CC(C)=O)cc1 (centres undefined),4147
CC(C)C(N)c1csc(Nc2ccc(C(=O)NCCCO)cn2)n1 (centres undefined),3937
O=C1NC[C@@H](CCCCN2C[C@H](Cc3ccc(O)cc3)N(CCC3CCCCC3)C(=O)C2=O)N(CCc2ccc(O)cc2)C1=O,5850
CC1(C(=O)Nc2ccc(F)c(Cl)c2)Cc2c(-c3ccc(C(N)=O)cc3)ccnc2O1 (centres undefined),2988
Cc1ccc(Cn2cc(CN3CC(N4CCN(CCN(C)C)CC4)CS3(=O)=O)nn2)cc1 (centres undefined),6674
CC1(Oc2ccc(-n3ccnc3)cc2)CCN(Cc2cccn2-c2nccs2)C1 (centres undefined),3794
CC1CCCCc2nc3c(c(=O)n21)CCCC3 (centres undefined),5317
O=C(NCc1ccccc1)C1c2ccccc2OCC(=O)N1CCc1c[nH]c2ccccc12 (centres undefined),5734
COc1cc([N+](=O)[O-])c2ncccc2c1[N+](=O)[O-],4474
CCOC(=O)[C@]12CCCC=C1N(Cc1ccco1)C(=O)[C@H](CC(=O)NCCCCc1ccccc1)C2,6077
CC1=C(C(=O)N2CCOCC2)CC(CC(=O)NCCCCc2ccccc2)C(=O)N1Cc1ccc(F)cc1 (centres undefined),3670
Cc1cccc(C)c1C(O)c1ncc(-c2ccccc2Cl)[nH]1 (centres undefined),3625
Cc1ccc2nc(-c3ccc(C#N)cc3)c(Cc3ccccc3)n2c1,6129
C#CC(C)OCC1CNC(=S)O1 (centres undefined),3388
CCCN(CC(=O)Nc1ccccc1OC)C(=O)CN1C(=O)NC(C)(C)C1=O,3048

# Arranged by heavy-atom count (descending): part of the list above
SMILES,Bead autofluor
COc1ccc(N2C(c3cc(OC)cc(OC)c3)=Cc3ccccc3C2CC(C)=O)cc1 (centres undefined),4147
CC1(Oc2ccc(-n3ccnc3)cc2)CCN(Cc2cccn2-c2nccs2)C1 (centres undefined),3794
COc1ccccc1Cc1c(-c2ccc(F)cc2)nc2cc(C)c(Br)c(C)n12,6390
Cc1cccc(C)c1C(O)c1ncc(-c2ccccc2Cl)[nH]1 (centres undefined),3625
CC1CCCCc2nc3c(c(=O)n21)CCCC3 (centres undefined),5317
C#CC(C)OCC1CNC(=S)O1 (centres undefined),3388

# Some values from the results shown:
# Under Bead autofluor, `COc1ccccc1Cc1c(-c2ccc(F)cc2)nc2cc(C)c(Br)c(C)n12` has 6390
# Under Bead autofluor, `CC1(Oc2ccc(-n3ccnc3)cc2)CCN(Cc2cccn2-c2nccs2)C1` (centres undefined) has 3794

# Next entries.
SMILES,Bead autofluor
CC(=O)c1ccc(Nc2nc(-c3sc(C)nc3C)cs2)cc1,3777
CCCN(CC(=O)Nc1ccccc1C)C(=O)C1CCN(S(=O)(=O)c2ccc(C)c(C)c2)CC1,3775
COC(=O)c1cccc(CC2(C)C(=O)Nc3ccc(OC(F)(F)F)cc32)c1 (centres undefined),3735
O=C(c1ccco1)N1CCN(C2CN(C3CCCC3)S(=O)(=O)C2)CC1 (centres undefined),6129
CCNC(=O)C1(C)CCCN1C(=O)c1ccc(C#N)cc1 (centres undefined),3806
CCOC(=O)C(=O)N(C)c1c(CC)nc2c(OCc3ccc(OC)cc3)cccn12,3466
Cc1cccnc1C(NC(=O)C1CCN(Cc2ccc3ccccc3n2)CC1)c1ccc(Cl)cc1 (centres undefined),3652
COCOCCn1cc(CN2CCS(=O)(=O)N(Cc3ccc(-c4ccncc4)cc3)C(CC(C)C)C2=O)nn1 (centres undefined),3656
CCOc1ccccc1C(=O)NCCN1CCC(n2c(=O)[nH]c3ccccc32)CC1,4399
COc1cccc(-c2oc3c(c2C#CCCO)C(O)CCC3)c1 (centres undefined),5605
CC(=O)OC[C@@H]1CN(Cc2cccc(C(F)(F)F)c2)C[C@H](n2cnc3c(NCc4ccco4)ncnc32)O1,4253
CCCCC(=O)N(C)c1c(CC)nc2c(OCCOc3ccc(F)cc3)cccn12,3007
C[C@@H]1CNC(=O)c2c(C(=O)N[C@H](C)c3ccccc3)ncn21,4082
CCOc1cc(/C=N/NC(=O)c2ccncc2)cc(Br)c1O,4068
CCOC1=C2CN(S(=O)(=O)c3ccc(C)cc3)[C@H](c3ccc(CC)cc3)C[C@@H]2N(S(=O)(=O)c2ccc(C)cc2)[C@H](c2ccccc2)C1,5697
O=C(O)C1CCC2CCCC21 (centres undefined),5298
O=S1(=O)CC(N2CCN(CCO)CC2)CN1C1CCCC1 (centres undefined),5288
CC(O)(C(=O)c1ccccc1)c1ccccc1 (centres undefined),4358
Cc1ccccc1C(=O)N1CCC1(C)C(=O)NC(C)C (centres undefined),3044
CC(O)(c1cccnc1)c1nc(-c2cccc(C#N)c2)cs1 (centres undefined),3132
COc1cccc(CNC(=O)c2ccc(CS(=O)Cc3ccccc3Cl)o2)c1 (centres undefined),3776
C[C@@H]1CN([C@@H](C)CO)C(=O)CCCn2nncc2CO[C@H]1CN(C)C(=O)Nc1ccccc1C(F)(F)F,3771
CC(C)(C)c1ccc(C(=O)N2CCC(=O)N([C@H](COCc3ccccc3)Cc3ccccc3)CC2)cc1,5955
COc1ccc(-n2c(-c3ccccc3F)nc3ccccc3c2=O)cc1,3749
COc1ccc(-c2csc(C(O)c3ccc(F)c(F)c3)n2)cc1 (centres undefined),2975

# Some of the entries so far, with each value named:
COc1ccc(-n2c(-c3ccccc3F)nc3ccccc3c2=O)cc1
  Bead autofluor: 3749
COc1ccc(-c2csc(C(O)c3ccc(F)c(F)c3)n2)cc1 (centres undefined)
  Bead autofluor: 2975

# Remaining list, next part
SMILES,Bead autofluor
CCC(c1nnnn1-c1ccc2c(c1)OCCO2)N1CCN(CCN2CCOCC2)CC1 (centres undefined),6310
O=C(NCCN1CCC(n2c(=O)[nH]c3ccccc32)CC1)c1cc(F)cc(F)c1,6175
CSc1ncnc2c1ncn2CCCN1CCN(Cc2c(C)cc(C)cc2C)CC1,2943
COC(=O)[C@]12CCCCC=C1N(Cc1ccc(Cl)cc1Cl)C(=O)[C@H](CC(=O)NCc1cccs1)C2,4143
COc1cc(CN2C[C@@H](CO)O[C@@H](n3cnc4c(N(C)C(C)C)ncnc43)C2)cc(OC)c1OC,4012
O=C1OCCC1=COCCCCCCOC=C1CCOC1=O,3386
CCN(CC)C(=O)C1=C(C)N(CCCN2CCCC2=O)C(=O)C(CC(=O)NCCN2CCOCC2)C1 (centres undefined),3041
Cc1c(C(=O)Nc2cccc(Oc3ccccc3)c2)sc(=O)n1Cc1ccc(F)cc1,4009
O=C(COC(=O)CCc1c[nH]c2ccccc12)Nc1cccc(Cl)c1,2842
COc1cc(OC)nc(Nc2nc(C(N)Cc3ccc(F)cc3)cs2)n1 (centres undefined),3729
COc1ccc(-c2c(C)nn3c(C(F)(F)F)cc(C)nc23)cc1,3943
O=S(=O)(/N=C(\c1ccc(F)cc1)N1CCOCC1)c1ccccc1,3740
CC(=O)Nc1cccc(NC(=O)c2ccc(S(=O)(=O)NCc3ccco3)cc2)c1,3594
CCOC(=O)[C@]12Cc3cc(OC)ccc3[C@H]1N(CC(=O)OC)C(=O)c1ccccc12,5738
COc1ccc(-n2nnnc2C(c2ccnc3ccccc23)N2CCC3(CC2)C(=O)NCN3c2ccccc2)cc1 (centres undefined),5204
